HPGD block = HPGD (human) dehydrogenase inhibition; purified HPGD, NADH fluorescence kinetic, PGE2 substrate; P15428; actives 4.3% (n = 150,000); Potency, µM, for the others: at the highest dose activity change, negative = inhibition, actives largely listed as inhibitors; active = well fitted inhibition curve with a large enough effect (not every such curve was filed as active); inconclusive = small, poorly fitted or top-dose-only effect, or another doubt; inactive = no such curve, though single readings can be large or run the other way;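 further: top concentration of the series not given in the record; plate controls included wells without enzyme; inactives centre near -10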
Target sequence (P15428 whole entry, looked up): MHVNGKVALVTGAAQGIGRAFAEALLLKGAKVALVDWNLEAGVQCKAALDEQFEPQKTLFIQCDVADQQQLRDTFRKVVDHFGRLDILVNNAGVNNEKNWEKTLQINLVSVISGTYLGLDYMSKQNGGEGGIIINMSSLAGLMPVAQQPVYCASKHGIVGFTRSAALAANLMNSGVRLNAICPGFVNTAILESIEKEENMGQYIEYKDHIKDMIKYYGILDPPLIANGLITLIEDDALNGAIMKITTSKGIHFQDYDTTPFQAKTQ
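NADH formation kinetics: reaction with 30 uM PGE2 and 1 mM NAD+ (final), 20 nM enzyme, Tris-HCl pH 8 with Tween 20, after 15 min compound preincubation at room temperature. Fluorescence change, last versus first of five reads.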
Active calls of the source: *; ? = inconclusive; & = joins results of further samples. On the % scale 0 is the no-effect control and ±100 the full control effect; potency means the concentration at half of the fitted maximal effect. A portion of the library; rates above refer to the full screens.

HPGD block	SMILES
-7.1%	Cc1ccccc1-c1noc(-c2ccccc2C(=O)N2CCCC2)n1
-2.3%	CN(C)S(=O)(=O)N1CCN(Cc2ccccc2)CC1
0.2%	COc1ccc(Oc2c(Cl)cnn(-c3ccc(F)cc3)c2=O)cc1
-8.0%	CC(Sc1nnc(-c2cccnc2)n1-c1ccccc1F)C(=O)N1CCCc2ccccc21 (configuration not stated)
-8.4%	CCCn1c(SCC(=O)O)nc2ccccc21
-14.9%	O=C(Nc1cccc(F)c1)Nc1ccccn1
-4.8%	Cc1nn(C)c(C)c1Sc1ccc(Br)cc1
-23.1%	CC/C(=N/NC(=O)c1ccccc1)c1ccc(OCCN2CCOCC2)cc1
-4.6%	Cc1coc2c(O)cc3c(c12)OC1(N2CCCCC2)C(=O)NCCCC31 (configuration not stated)
-23.7%	COc1ccc(NC(=S)Nc2ccc(OCc3ccccc3)cc2)c(OC)c1
-4.1%	COc1ccc(C(=O)N(Cc2ccc(N(C)C)cc2)C2CCS(=O)(=O)C2)cc1 (configuration not stated)
-12.1%	O=C(Nc1ccc(C(F)(F)F)cc1)c1cccnc1N1CCOCC1
2.3%	CCOC(=O)N1CCN(Cc2ccccn2)CC1
-12.8%	O=c1[nH]c(NCCO)nc2ncn(Cc3ccccc3)c12
?	CC(C)OC(=O)c1c(NC(=O)c2ccco2)sc2c1CCCC2
-3.7%	COCCOCCOCCC(=O)NC1CC2CCC1(C)C2(C)C (configuration not stated)
-3.9%	NC(=O)C1CCN(Cc2nc3cc(Cl)ccc3c(=O)[nH]2)CC1
?	Cc1ccc(F)cc1NC(=O)c1cccc(N(C)C)c1
28.2µM*	O=C(O)/C=C/C(=O)Nc1ccccc1-c1ccccc1
-7.5%	COC(=O)[C@@]1(Cc2ccccc2)[C@H]2c3cc(C(=O)N(C)C)n(Cc4c(CO)[nH]cc(C)c4=O)c3C[C@H]2CN1C(=O)c1ccccc1
-4.6%	CCC(c1nc2ccccc2c(=O)n1CCN1CCOCC1)N1C(=O)c2ccccc2C1=O (configuration not stated)
-12.7%	CCCCn1c(SCC(=O)Nc2cc(C)on2)nnc1-c1cccnc1
-1.3%	CNc1nc(Cl)nc(NC(C)(C)C)n1
-4.0%	COc1ccc(CCn2c(C)cc(C(=O)CSc3nnnn3-c3ccccc3)c2C)cc1
-15.0%	Cc1cccc(N(CC(=O)Nc2ccccc2-c2ccccc2)S(=O)(=O)c2ccccc2)c1C
-6.3%	CCCC(c1nnnn1Cc1ccccc1)N1CCN(c2ccccc2OC)CC1 (configuration not stated)
-5.0%	CCN1C(=O)c2cccc3c(S(=O)(=O)Nc4ccccn4)ccc1c23
-28.9%	Cc1ccc(Nc2ncnc3nc[nH]c23)cc1Cl
39.8µM*	COc1ccccc1CNC(=O)c1ccc(Br)o1
?	Cn1nc(-c2ccc(Cl)cc2)c2cc(C(=O)NCCN3CCOCC3)sc21
?	O=C1CCCc2c1nc(-c1cccc(Cl)c1)n2O
-9.3%	CCCC(=O)N(CCc1ccc(OC)cc1)Cc1nc2ccccc2c(=O)[nH]1
?	COc1cc2c(=O)n(CC3CCCO3)c(=O)n(CC(=O)Nc3ccc(F)cc3F)c2cc1OC (configuration not stated)
-21.0%	Cc1occc1C(=O)NC1CCCc2ccccc21 (configuration not stated)
-15.1%	COC(=O)C1=C(C)N=c2s/c(=C3\C(=O)Nc4ccccc43)c(=O)n2C1c1ccccc1 (configuration not stated)
-16.4%	CC(C)(C)c1ccc(-c2cc(C(=O)NNC(=O)Nc3ccccc3)c3ccccc3n2)cc1

5 compounds drawn at random from the list so far:
HPGD block	SMILES
?	O=C1CCCc2c1nc(-c1cccc(Cl)c1)n2O
-9.3%	CCCC(=O)N(CCc1ccc(OC)cc1)Cc1nc2ccccc2c(=O)[nH]1
-5.0%	CCN1C(=O)c2cccc3c(S(=O)(=O)Nc4ccccn4)ccc1c23
-15.0%	Cc1cccc(N(CC(=O)Nc2ccccc2-c2ccccc2)S(=O)(=O)c2ccccc2)c1C
?	Cn1nc(-c2ccc(Cl)cc2)c2cc(C(=O)NCCN3CCOCC3)sc21

Further compounds
HPGD block	SMILES
-5.1%	CCc1cccc(NC(=O)Cc2cn(C)c3ccccc23)c1
?	CC1=Nc2ccccc2/C1=C/c1sc(=N)n(-c2nccs2)c1O
-14.9%	COc1ccc2c(CC(=O)Nc3c(C)n(C)n(-c4ccccc4)c3=O)coc2c1
-0.6%	COC(=O)CNC(=O)c1nn(-c2cccc(OC)c2)c(=O)c2ccccc12
?	CC1(C)CC(=O)c2cc(OCC(=O)NCc3cccnc3)ccc2O1
-14.6%	Cc1oc(=O)c(NC(=O)c2ccccc2)cc1C(=O)c1ccccc1
-8.1%	O=c1ccccn1Cc1ccccc1F
-11.7%	O=C(Nc1cccnc1N1CCOCC1)c1ccco1
-6.6%	Cc1cccc(NC(=O)CSc2nnnn2-c2cccnc2)c1
-18.1%	O=C(CNc1cccc(C(F)(F)F)c1)N/N=C/C1CCCCC1
-3.9%	COC(=O)CCC(=O)OC1(C)C(=O)C2=CN(CCc3ccccn3)C(c3ccc(OC)cc3)=CC2=C(Br)C1=O (configuration not stated)
-0.6%	COc1ccc(NC(=O)CN2CCC(n3c(C)nc4cc(F)ccc43)CC2)c(OC)c1
?	O=C(CSC1=Nc2ccccc2C2=NC(c3ccccc3)C(=O)N12)NCC1CCCO1 (configuration not stated)
-3.8%	C=CCN1C=C2C(=O)C(C)(OC(=O)c3cnc4ccccc4n3)C(=O)C=C2C=C1/C=C/COC (configuration not stated)
3.2%	O=C(CC1NCCNC1=O)OCc1ccccc1 (configuration not stated)
-10.6%	CCCCC1=CC2=CC(=O)C(C)(OC(=O)CC)C(=O)C2=CN1c1ccncc1 (configuration not stated)
-17.6%	CCOC(=O)CNC(=O)CSc1nc2cccnc2n1CC
-5.4%	Fc1cccc(NC(=S)NCCN2CCOCC2)c1
-20.3%	Cc1cc(C)c2c(=O)[nH]c(SCC(=O)N(C)C)nc2n1
-1.2%	CCCCNC(=O)NCC(=O)Nc1ccc(F)c(F)c1
-12.3%	CCn1c(=O)c(=O)[nH]c2cc(C(=O)NC3CC3)ccc21
-1.9%	COc1cc(C(=O)NCCc2cn3ccccc3n2)cc(OC)c1OC
-2.1%	Cn1ncc([N+](=O)[O-])c1C(=O)Nc1ccn(Cc2ccccc2F)n1
?	CCn1c(SCC(=O)c2ccc(Cl)cc2)nnc1-c1ccoc1C

6 compounds from above, sorted by length of the SMILES, falling:
HPGD block	SMILES
?	O=C(CSC1=Nc2ccccc2C2=NC(c3ccccc3)C(=O)N12)NCC1CCCO1 (configuration not stated)
-2.1%	Cn1ncc([N+](=O)[O-])c1C(=O)Nc1ccn(Cc2ccccc2F)n1
-12.3%	CCn1c(=O)c(=O)[nH]c2cc(C(=O)NC3CC3)ccc21
-1.9%	COc1cc(C(=O)NCCc2cn3ccccc3n2)cc(OC)c1OC
-1.2%	CCCCNC(=O)NCC(=O)Nc1ccc(F)c(F)c1
-5.4%	Fc1cccc(NC(=S)NCCN2CCOCC2)c1

Going on with the list.
HPGD block	SMILES
?	CCCSC1=C(C#N)C(c2cccs2)C(C(=O)Nc2ccccc2)=C(C)N1 (configuration not stated)
-2.2%	O=C(CCN1CCN(C(c2ccccc2)c2ccccc2)CC1)N/N=C/c1ccc(O)cc1
-4.1%	Cc1ccccc1NC(=O)CN1CCC(n2nnc3ccccc32)CC1
14.1µM*	COC(=O)c1cc(C(=O)OC)cc(N2C(=O)CC(NNC(=O)c3ccc(C)cc3)C2=O)c1 (configuration not stated)
-3.9%	CC(=O)OC1CCC2(C)C(=CCC3C2CCC2(C)C3C[C@@H]3O[C@]32C(C)=O)C1 (some centres not stated)
-10.4%	Cc1[nH]c2c(C)cccc2c1CCNC(=O)c1ccc2c(c1[N+](=O)[O-])C(=O)c1ccccc1C2=O
-16.3%	CNC(=S)N(Cc1ccc(OC)cc1)C1CC(=O)N(c2ccc(OC)cc2)C1=O (configuration not stated)
-11.1%	CCOC(=O)COc1c(Br)cc(/C=C2\SC(=O)N(CC(=O)N3CCCC3)C2=O)cc1OC
?	N#CC1=C2SCN(Cc3ccco3)CN2C(=O)CC1c1cccc2ccccc12 (configuration not stated)
-5.0%&-9.5%	Nc1ncnc2c1ncn2[C@@H]1O[C@H](CO)[C@@H](O)[C@H]1O
-14.5%	O=C(Nc1nc(-c2ccccc2)cs1)C1CCCCN1S(=O)(=O)c1ccccc1 (configuration not stated)
-6.4%	O=C(O)c1ccc(OC2CSC2)cc1

As a working copy, some entries already given.
HPGD block	SMILES
-7.1%	Cc1ccccc1-c1noc(-c2ccccc2C(=O)N2CCCC2)n1
-2.3%	CN(C)S(=O)(=O)N1CCN(Cc2ccccc2)CC1

Additional structures follow.
HPGD block	SMILES
2.7%	COc1cc(NC(=O)CSc2nnnn2-c2ccccc2)cc(OC)c1OC
-20.4%	O=c1c2ccccc2n2c(-c3cccc(Cl)c3)nnc2n1Cc1ccccc1
-5.9%	Cc1ccc2c(c1)N(CC(=O)O)C(=O)CO2
?	NS(=O)(=O)c1ccc(N=Nc2nc3[nH]cnc(=S)c3[nH]2)cc1
-16.0%	Cc1ccc(/C(O)=C2\C(=O)C(=O)N(c3cc(C)on3)C2c2cccc(Cl)c2)cc1 (configuration not stated)
-19.8%	CN(C)c1oc(-c2ccc(Cl)cc2)nc1S(=O)(=O)c1ccccc1
-4.3%	C=C(C)c1ccc(C(C)(C)NC(=O)N(Cc2ccccc2)Cc2ccco2)cc1
-15.7%	CCOC(=O)c1[nH]c2ccc(Br)cc2c1NC(=O)CNC
-5.3%	COCCn1c(C)cc(C(=O)CSc2nnc(-c3cccnc3)n2-c2ccccc2F)c1C
-17.9%	Clc1ccc(C2C3=C(Nc4ncnn42)c2ccccc2CC3)cc1 (configuration not stated)
?	Nn1cnnc1N/N=C/c1cc([N+](=O)[O-])c(Cl)cc1Cl
-3.8%	CC(=O)Nc1ccc(NC(C)=C(C#N)C#N)cc1
-3.4%	Cc1noc2ncnc(Oc3ccccc3)c12
-16.3%	C=CCn1c(-c2cc(OC)c(OC)c(OC)c2)n[nH]c1=S
-7.8%	N#CCCN1CCN(S(=O)(=O)c2ccc(S(=O)(=O)NC3CCCCC3)cc2)CC1
-12.2%	Cn1c(=O)c2c(ncn2CC(=O)OCC(=O)Nc2ccc(Cl)cc2Cl)n(C)c1=O
-25.6%	Cc1ccc(NNC(=O)C(O)(c2cccc(C(F)(F)F)c2)c2cccc(C(F)(F)F)c2)cc1
-2.7%	Cc1cccc(C(C)C)c1-n1nnnc1-c1ccccc1
?	CC(C)OCCCn1c(-c2ccco2)nc2nc3ccccc3nc21
2.9%	CC(=O)c1c(N2CCN(c3cccc(Cl)c3)CC2)nc(=S)n(-c2ccccc2)c1C
-12.2%	COc1ccc(N2C(=O)CC(Nc3cccc(C(C)=O)c3)C2=O)cc1OC (configuration not stated)
-4.7%	COc1ccc(Cl)cc1NC(=O)C(C)N1CCN(C/C=C/c2ccccc2)CC1 (configuration not stated)
-3.4%	C#CCOCCOCCOCCNc1nc(N2CCN(C(=O)Cn3cc(CCCN=C(N)N)nn3)CC2)nc(N2CCN(C(=O)[C@H]([C@@H](C)CC)n3cc(CCC(=O)O)nn3)CC2)n1
-14.4%	O=c1c2cccnc2[nH]c(=S)n1CCC1=CCCCC1
-14.6%	CC1=C(C(N)=O)C(c2ccccn2)n2nc(-c3ccccc3Cl)nc2N1 (configuration not stated)
-6.1%	CC1CCN(C(=O)CSc2nnc(CNc3ccc(F)cc3)n2Cc2ccco2)CC1
-4.5%	O=C(Cn1nc(CNc2ccc(Cl)cc2)[n+]2c1CCCCC2)c1ccc(Cl)cc1
-3.0%	CC(=O)OCCC(C)C
?	O=C(CCS(=O)(=O)c1cccs1)Nc1ccc(C(=O)NCc2ccc(F)cc2)cc1
4.0%	CCn1nnc(NC(=O)c2ccccc2Br)n1
?	CCC(C)(C)n1nnnc1C(c1ccc(O)c(OC)c1)N1CCc2ccccc2C1 (configuration not stated)
-0.2%	CCC(=O)N/C(=N/c1nc(C)cc(C)n1)Nc1cccc(OC)c1
?	Cc1cccc(/C=C\c2ccccc2)n1
-11.2%	CC1(C)CN(c2ccccc2)N(Cc2ccc(F)cc2)C1=O
-0.1%	CCCCC1=CC2=C(c3ccco3)C(=O)C(C)(OC(=O)c3ccc(OC)cc3)C(=O)C2=CN1CCN1CCOCC1 (configuration not stated)
-7.9%	CCn1c(-c2ccccc2Cl)nn(CC(=O)Nc2ccccc2OC)c1=S
3.0%	CC1=C(C(=O)OCC2CCCO2)C(c2cccc(O)c2)NC(=O)N1 (configuration not stated)
17.8µM*	O=C(COc1c(Br)cc(Br)c2cccnc12)N1CCc2ccccc2C1
-12.2%	COC(=O)CCC(=O)NNC(=O)c1ccc(Br)cc1
-10.6%	CCCCNC(=S)N(C)/N=C/c1sc(N2CCCCC2)nc1-c1cccs1
-13.4%	C/C(=C\CNc1ncnc2c1ncn2[C@@H]1O[C@H](CO)[C@@H](O)[C@H]1O)CO
-21.8%	Cc1cc(N2CCN(S(=O)(=O)c3ccccc3)CC2)c2ccccc2n1
-15.0%	COC(=O)COc1cccc(NC(=O)c2cccs2)c1
-4.3%	COc1ccc(N2CS(=O)(=O)/C(=C/N(C)C)C2=O)cc1
?	CN1C=CC2=C(C#N)C(N)C(C#N)(C#N)[C@H](c3ccccc3)[C@H]2C1 (some centres not stated)
-9.4%	CCOc1cc(Br)c(Br)c(C=Nc2ccc(NC(C)=O)cc2)c1O
-7.0%	Cn1c(=O)c2cnc(N3CCOCC3)nc2n(C)c1=O
-3.7%	COc1ccc(NC(=O)C2CCCN2S(=O)(=O)c2ccc3c(c2)CCC(=O)N3)c(OC)c1 (configuration not stated)
-8.6%	CC(=O)Nc1cccc(NC(=O)C2CCCN2C(=O)Nc2cccc(C)c2)c1 (configuration not stated)
-30.1%	COC(=O)c1ccc(NC(=O)CSc2nc3cccnc3n2C)cc1

Screens as filed in PubChem BioAssay.
